Assay outcomes from PubChem.
VDR inh = blocks the human vitamin D receptor; P11473; VDR-SRC2-3 peptide fluorescence polarization, 2 h; Potency, µM, for the others: max response, negative = inhibition, hits mostly inhibitors; 400,000 tested, 0.93% active; AID 504847; active = well fitted inhibition curve with a large enough effect; inconclusive = small, poorly fitted or top-dose-only effect, or another doubt; inactive = no such curve, though single readings can be large or run the other way; also: series mostly up to about 120 µM
Target sequence (P11473 whole entry, looked up): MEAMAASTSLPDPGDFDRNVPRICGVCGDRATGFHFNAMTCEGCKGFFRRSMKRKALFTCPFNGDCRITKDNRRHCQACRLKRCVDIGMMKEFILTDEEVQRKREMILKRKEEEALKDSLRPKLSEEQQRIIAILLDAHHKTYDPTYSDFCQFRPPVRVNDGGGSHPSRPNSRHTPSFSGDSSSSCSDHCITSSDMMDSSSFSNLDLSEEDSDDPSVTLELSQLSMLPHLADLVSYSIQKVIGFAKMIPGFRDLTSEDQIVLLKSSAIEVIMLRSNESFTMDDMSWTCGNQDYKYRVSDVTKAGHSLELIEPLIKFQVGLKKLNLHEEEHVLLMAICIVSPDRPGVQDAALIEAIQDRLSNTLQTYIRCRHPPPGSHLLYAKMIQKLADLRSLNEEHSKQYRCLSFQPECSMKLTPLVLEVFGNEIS
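Fluorescence polarization assay of small-molecule disruption of VDR binding to coregulator peptide SRC2-3. Compounds and controls pin-transferred, then read after 2 h incubation at ambient room temperature.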
The depositor's hits bear a star; u = inconclusive; & = joins results of further samples. % is scaled to controls: 0 for no effect and ±100 for the full control effect; potency is read from the fitted curve at half-maximal effect. Not all compounds are listed (hit frequency here may not be typical).

SMILES	VDR inh
COc1ccc(NS(=O)(=O)c2cc(-c3nnnn3C)ccc2OC)cc1	-10%
CN(C)c1ccc(CN(CC2CCCO2)C(=O)c2ccc(Br)cc2)cc1 (stereo not drawn)	23%
Cc1[nH][nH]c(=O)c1C(c1ccc(-c2ccc(Cl)cc2)o1)c1c(C)[nH][nH]c1=O	79µM*
CCN(Cc1ccccc1)S(=O)(=O)c1ccc(S(=O)(=O)N(Cc2ccccn2)Cc2ccco2)cc1	-6%
CCOC(=O)Cn1nc(NC(=O)c2cc(OC)cc(OC)c2)cc1C	4%
Clc1cccc(-c2ccc(C3Nc4cccc5cccc(c45)N3)o2)c1	-23%
NC(=O)C1(c2ccccc2)CCCN1C(=O)c1ccccc1Br (stereo not drawn)	-12%
COc1ccc(C(=O)NCC(=O)N2CCN(c3ccc(F)cc3)CC2)cc1	11%
Cn1ccnc1Sc1ccccc1[N+](=O)[O-]	7%
O=C(c1ccncc1)N(Cc1ccco1)Cc1cc2ccccc2[nH]c1=O	-6%
COc1ccc(-n2c(C)cc(C(=O)CN3C(=O)c4ccccc4C3=O)c2C)cc1	17%
Nc1cc(C(=O)OCC(=O)c2ccc(CC(=O)N3CCOCC3)s2)ccc1Cl	25%
CCN1C(=O)C(O)(CC(=O)c2cc(C)ccc2C)c2ccccc21 (stereo not drawn)	10%
COc1cc(/C=C2/SC(=S)N(CC(=O)O)C2=O)ccc1OC(=O)c1cccs1	u
Cc1ccc(NC(=O)Cn2c(CCC(=O)O)ccc2-c2ccc(Cl)cc2)cc1	-12%&5%
COc1ccc(C2CC(=O)N(C)c3ccccc3S2)cc1 (stereo not drawn)	0%
CC(C)(C)OC(=O)C[C@@H]1C/C=C\C[C@@H](CC(=O)N[C@@H](CO)Cc2ccccc2)C(=O)NC[C@@H](c2ccccc2)OC1=O	-15%
Cc1ccc(-c2nnn(CC(=O)N(c3ccccc3)C(C(=O)NCC3CCCO3)c3cccs3)n2)o1 (stereo not drawn)	-14%
COc1ccc(/C=C2\SC(=S)N(NS(=O)(=O)c3ccc(C)cc3)C2=O)c(OC)c1	-14%
Cc1cccc(NC(=S)NC2CC3CCCC(C2)N3Cc2ccco2)c1 (stereo not drawn)	7%
CCNC(=S)N1CCN(c2ccccc2OCC)CC1	-8%
COc1ccc(N(CC(=O)Nc2nccs2)S(=O)(=O)c2c(C)[nH]c(=O)[nH]c2=O)cc1	0%
CC(=O)N1c2ccc(S(=O)(=O)NCCc3ccc(Cl)cc3)cc2CC1C (stereo not drawn)	4%
CN1/C(=C\C(=S)NC(=O)c2ccc([N+](=O)[O-])cc2)C(C)(C)c2ccccc21	-15%

Six records drawn at random from those above, as already listed:
SMILES	VDR inh
CCN1C(=O)C(O)(CC(=O)c2cc(C)ccc2C)c2ccccc21 (stereo not drawn)	10%
Clc1cccc(-c2ccc(C3Nc4cccc5cccc(c45)N3)o2)c1	-23%
Cc1[nH][nH]c(=O)c1C(c1ccc(-c2ccc(Cl)cc2)o1)c1c(C)[nH][nH]c1=O	79µM*
CC(C)(C)OC(=O)C[C@@H]1C/C=C\C[C@@H](CC(=O)N[C@@H](CO)Cc2ccccc2)C(=O)NC[C@@H](c2ccccc2)OC1=O	-15%
Cn1ccnc1Sc1ccccc1[N+](=O)[O-]	7%
COc1cc(/C=C2/SC(=S)N(CC(=O)O)C2=O)ccc1OC(=O)c1cccs1	u

Continuation.
SMILES	VDR inh
Cc1ccc(NC(=O)Cn2cccc2)cc1C	-13%
COc1ccccc1NC(=O)Cn1cnc2ccc(S(=O)(=O)N3CCC(C)CC3)cc2c1=O	13%
Cc1ccc(NC(=O)c2ccc3c(SCC(=O)O)c4c(nc3c2)CCCC4)c(Br)c1	u
Oc1ccc(Nc2ncnc3ccccc23)cc1	-2%
CCc1cc(=O)oc2c3c(cc(OCC(=O)NCCCOC)c12)OC(C)(C)CC3	5%
CCOC(=O)c1cc2occc2n1CCCN1C(=O)c2ccccc2C1=O	15%
CCn1c(CCNC(=O)c2cccs2)nnc1SCC(=O)Nc1nc(-c2ccccc2)cs1	20%
COc1ccc(OC)c(C(=O)COC(=O)CN2C(=O)NC3(CCCCC3C)C2=O)c1 (stereo not drawn)	-12%
CCOC(=O)c1c(C)nc(C)c2c(=O)oc3ccccc3c12	4%
CCOc1ccc(NC(=O)Cn2c(C)ccc(C#N)c2=O)cc1	0%
Nc1ccccc1SCC(=O)Nc1nc(-c2ccccc2)cs1	-10%
COc1ccc(-n2c(C)cc(/C=C(\C#N)C(=O)NCc3ccco3)c2C)cc1	-1%

Arranged by count of non-hydrogen atoms (high to low): some entries from above.
SMILES	VDR inh
CCn1c(CCNC(=O)c2cccs2)nnc1SCC(=O)Nc1nc(-c2ccccc2)cs1	20%
CCc1cc(=O)oc2c3c(cc(OCC(=O)NCCCOC)c12)OC(C)(C)CC3	5%
COc1ccc(-n2c(C)cc(/C=C(\C#N)C(=O)NCc3ccco3)c2C)cc1	-1%
CCOC(=O)c1cc2occc2n1CCCN1C(=O)c2ccccc2C1=O	15%
Nc1ccccc1SCC(=O)Nc1nc(-c2ccccc2)cs1	-10%
CCOC(=O)c1c(C)nc(C)c2c(=O)oc3ccccc3c12	4%
Cc1ccc(NC(=O)Cn2cccc2)cc1C	-13%

(more compounds)
SMILES	VDR inh
COc1cccc(NC(=S)N2CCCN(Cc3ccc(F)cc3)C2)c1	6%
COc1ccc(N2CCN(C(=O)c3ccc4ccccc4n3)CC2)cc1	5%
COC(=O)C1=C(C)N(Cc2ccccc2)C(=NCc2cccc(Cl)c2)N[C@H]1c1cccc(F)c1	-10%
CNC(=O)CSc1nc2cc(S(=O)(=O)Nc3ccccc3OC)ccc2o1	-8%
CC1C/C(=C\c2ccccc2[N+](=O)[O-])c2nc3ccccc3c(C(=O)O)c2C1 (stereo not drawn)	5%
NC(=O)C1CCN(C(=S)NC2CC3C=CC2C3)CC1 (stereo not drawn)	7%
Cc1ccc(C2C(=O)N(C3CCCCCC3)CC(=O)N2CCC2=CCCCC2)cc1 (stereo not drawn)	22%
COc1cc(C#N)c(N=C(SCC#N)N2CCOCC2)cc1OC	-8%
Cc1nonc1CC(=O)NC1CC(C)(C)Cc2c1cnn2-c1ccc(F)cc1 (stereo not drawn)	-11%
CC1Cc2ccccc2N1C(=O)CN1C(=O)CN(C)C(=O)c2ccccc21 (stereo not drawn)	2%
CC(C)Oc1ccc(C(=O)NCC(=O)OCC(=O)N(C)Cc2cccs2)cc1	9%
Cc1ccc2nc(C(Cl)(Cl)Cl)nc(N/N=C/c3ccc([N+](=O)[O-])cc3)c2c1	3%
CNC(=O)COC(=O)c1cc(-c2ccc(OC)cc2)nc2ccccc12	0%
Clc1ccc2nc(-c3ccc(Br)s3)cn2c1	5%
Cn1c(Cl)cnc1C(O)c1ccccc1 (stereo not drawn)	-1%
C[C@H](CO)N1C[C@H](C)[C@@H](CN(C)S(=O)(=O)c2cn(C)cn2)Oc2c(NS(=O)(=O)c3cccs3)cccc2C1=O	-8%
O=C(c1ccc(C(=O)N2CCOCC2)nc1)N1CCOCC1	3%
CC(=O)N1CCN(S(=O)(=O)c2cccc(C(=O)NC3CCCC3)c2)CC1	5%
COCCn1c(C)cc(C(=O)COC(=O)c2ccc3ncsc3c2)c1C	-11%
CCOC(=O)N1CCN(S(=O)(=O)c2ccc(C(=O)Nc3ccc(F)cc3F)cc2)CC1	10%
COc1ccc(Cl)cc1NC(=S)NCCCN1CCCC1=O	-13%
CN1/C(=C\C(=S)Nc2ccccc2)C(C)(C)c2ccccc21	u
Cc1ccccc1-n1c(=O)cc(N2CCCCCC2)[nH]c1=O	5%
CC(O)CSc1nc2c(c(=O)[nH]c(=O)n2C)n1Cc1ccccc1Cl (stereo not drawn)	-15%
Cc1ccc(NC(=O)Nc2nnc(SCC(=O)Nc3ccc(F)cc3F)s2)cc1	-2%
COC(=O)c1cn(C)c2ccc(S(=O)(=O)N3CC(C)CC(C)C3)cc2c1=O (stereo not drawn)	6%
CCCCNCc1cc(OCC)c(OCC)cc1Br	18%
COCCNC(=O)C1CC(=O)N(c2ccc(OC)cc2)C1c1ccc(OC)cc1 (stereo not drawn)	11%
Cc1ccc(S(=O)(=O)N2[C@@H](c3ccccc3)C(C(=O)O)=CC[C@H]2c2ccc(C(C)C)cc2)cc1	-25%
CC(C)CN(C(=O)c1cccc(S(=O)(=O)N2CCN(c3ccc(F)cc3)CC2)c1)C1CCS(=O)(=O)C1 (stereo not drawn)	10%
CSc1sc(C(=O)NC(=O)NCc2ccncc2)c(C)c1-c1ccon1	-6%
CCOc1ccc(N2CC(C(=O)N3CC(C)OC(C)C3)CC2=O)cc1 (stereo not drawn)	-5%
Cc1ccn(-c2ccc([N+](=O)[O-])cc2)n1	-24%
O=c1c2c(-c3cccs3)csc2ncn1-c1ccccc1	4%
COc1cc(OC)c(S(=O)(=O)NCc2cccnc2)cc1NC(C)=O	-23%
CCOC(=O)c1cc2c(ccn2C)n1CC(=O)Nc1ccc(F)cc1	-26%
CCCCCc1nc(-c2nonc2N)no1	-16%
CCNC(=S)NNC(=O)c1cc(-c2ccc(OC)cc2)nc2ccccc12	-5%
CCc1nc2cc(CC(=O)O)ccc2o1	7%
CC(C)(C)OC(=O)C[C@H]1C/C=C\C[C@@H](CC(=O)NCCO)C(=O)N[C@H](C(C)(C)C)COC1=O	-10%
CC(C)c1nc(CNC(=O)CC2C(=O)NCCN2Cc2ccc(F)cc2Cl)cs1 (stereo not drawn)	-16%
CC12CN(C(=O)c3ccco3)CC(c3ccccc3)(CN(C(=O)c3ccco3)C1)C2=O	-7%
CN1/C(=C\C=C2/C(=O)Oc3ccccc3C2=O)C(C)(C)c2ccccc21	-10%
CC1(c2ccccc2)NC(=O)N(CC(=O)N2CCOCC2)C1=O (stereo not drawn)	-6%
Cc1cccc(NC(=O)C2CCC(CNS(=O)(=O)c3csc(C(N)=O)c3)CC2)c1C (stereo not drawn)	6%
Cc1noc(COc2ccccc2OCC(N)=O)c1Cl	2%
COc1cc(NC(=O)C2CC3CCC2C3)c(OC)cc1Cl (stereo not drawn)	-11%
CCOC(=O)C1CCCN(C(=O)c2ccc3c(c2)N(Cc2ccc(Cl)cc2)C(=O)c2ccccc2S3=O)C1 (stereo not drawn)	2%

Exported with values ahead of the structure: 2 of the compounds above
| VDR inh | molecule |
| --- | --- |
| 2% | CCOC(=O)C1CCCN(C(=O)c2ccc3c(c2)N(Cc2ccc(Cl)cc2)C(=O)c2ccccc2S3=O)C1 (stereo not drawn) |
| -5% | CCNC(=S)NNC(=O)c1cc(-c2ccc(OC)cc2)nc2ccccc12 |

(listing goes on)
SMILES	VDR inh
O=C(COc1cccc2c1CCNC2=O)Nc1cccc(F)c1	10%
Cc1ccc(S(=O)(=O)N2CCOCC2)cc1NC(=O)c1ccc(F)cc1F	7%
CC(C)C[C@H]1CN([C@@H](CC(C)C)CN2CCCC2CN2C(=S)NC[C@@H]2Cc2ccc(O)cc2)C(=S)N1CC1CCCCCC1 (stereo partly drawn)	6%
Nc1nonc1-n1nnc(C(=O)N/N=C/c2ccccc2Cl)c1-c1ccc2c(c1)OCO2	2%
CC(C)(C)OC(=O)N1CCC(c2c(C(=O)NCc3ccco3)cnn2-c2ccc(F)cc2F)CC1	6%
N#Cc1cc(-c2ccccc2)cn(Cc2c(Cl)cccc2Cl)c1=O	7%
CCCCCn1c(CN2CCN(Cc3ccccc3)CC2)nc2c1c(=O)[nH]c(=O)n2C	10%
O=C(c1ccco1)N1CCCC(c2nc(-c3ccc(S(=O)(=O)NCc4ccccc4)cc3)no2)C1 (stereo not drawn)	2%
COc1ccc(N(C)C(=O)CN(C)S(=O)(=O)c2ccc3c(c2)c(=O)n(C)c(=O)n3C)c(OC)c1	-6%
O=C(O)c1ccc(Cl)c(NC(=S)NC(=O)c2ccccc2[N+](=O)[O-])c1	-19%
Cc1nc(NC2=NCN(Cc3cccnc3)CN2)nc2ccccc12	3%
CCS(=O)(=O)N1CCC(C(=O)Nc2ccc(C(C)=O)cc2)CC1	10%
O=S(=O)(Nc1ccon1)c1ccc(Br)s1	5%
CCOc1ccc(NC(=O)CSc2oc(-c3ccco3)nc2S(=O)(=O)c2ccc(C)cc2)cc1	8%
COc1ccc(-c2nn(-c3ccccc3)cc2C(=O)Nc2cccc(C(=O)O)c2)cc1[N+](=O)[O-]	-17%
COc1cccc(C2C(C(N)=O)=C(C)Nc3nc(CCCO)nn32)c1 (stereo not drawn)	7%&1%
COc1ccc(CCN2C(=O)C3C(C2=O)C2C=CC3C23CC3)cc1OC (stereo not drawn)	2%
CCn1cc(CN(C)S(=O)(=O)c2ccc3ccccc3c2)c(C)n1	14%
COCCCNC(=O)c1sc2nc(C)c(C(=O)Nc3ccc(C)cc3C)c(-c3ccc(Br)cc3)c2c1N	-15%
CCN(CC)c1ccc(/C=N/NC(=O)c2ccc([N+](=O)[O-])cc2)cc1	-19%
CCOC(=O)NNC1CC(=O)N(c2ccccc2)C1=O (stereo not drawn)	-9%
Cc1ccc(S(=O)(=O)N2CCCC(C(=O)N3CCCc4ccccc43)C2)cc1 (stereo not drawn)	-4%
C[C@@H]1CCC[C@@]2(O[C@H](CCO)C[C@@H](O)[C@@H]2O)O1	-1%
CC(C)(C)OC(=O)N[C@H]1C=C[C@@H](OC(=O)CC(=O)OCC(F)(F)F)C1	6%
Cc1ccc(-c2nnc(SC(C)C(=O)NCC3CCCO3)nc2-c2ccc(C)cc2)cc1 (stereo not drawn)	-10%
Cc1ccccc1OCC(=O)N/N=C/c1ccccn1	-21%
O=[N+]([O-])/C=C1\C=CC=CN1Cc1ccc(Cl)cc1	3%
COc1ccc(OC)c(C2CC(=O)N3CN(c4ccc(C)c(Cl)c4)CSC3=C2C#N)c1 (stereo not drawn)	16µM*
Cc1cccc(N2CCN(C(=O)c3cc4c(=O)oc5ccccc5c4s3)CC2)c1C	-26%
O=C(c1cnc2n(c1=O)CCS2)N1CCN(c2ccc(Cl)c(Cl)c2)CC1	-1%
Cc1cc2ncc(-c3ccccc3)nc2cc1C	4%&1%
Cc1ccccc1NC(=O)OCc1cccnc1Oc1ccc(Cl)cc1	2%
COc1cc(OC)cc(-c2sc3ccc(OC)cc3c2-c2ccc3cc[nH]c3c2)c1	18%
N#Cc1ccc(-c2ccco2)nc1SCc1ccccc1	0%
